Compound activity deposited in PubChem BioAssay by National Center for Advancing Translational Sciences (NCATS).
StopGo FLuc: FMDV 2A StopGo reporter, firefly signal. HEK cells with a luciferase reporter of 2A StopGo recoding. Potency, µM (highest dose often 57.5 µM), for inactives: top-dose signal change, negative = less light. 0.23% of 120,000 active; active = well fitted falling curve with a large enough effect; inconclusive = small, poorly fitted or top-dose-only effect; inactive = no such curve, though single readings can be large or run the other way; note: nearly all actives have a fitted effect of over 60% in size; overnight with compound
2A Renilla: lowers the Renilla signal of an FMDV 2A StopGo reporter; 0.32% of 120,000 active; HEK cells with a luciferase reporter of 2A StopGo recoding; Potency, µM (top dose mostly 57.5 µM), for the others: at the highest dose signal change, negative = less light; active means well fitted falling curve with a large enough effect; inconclusive means small, poorly fitted or top-dose-only effect; inactive means no such curve, though single readings can be large or run the other way; note: nearly all actives have a fitted effect of over 55% in size; overnight with compound
The depositor's hits bear a star; u = inconclusive; [ ] = dose if it differs, or a comment. % is set by controls: 0 for no effect and ±100 for the full control effect; potency is the fitted concentration of half-maximal effect.

Results follow in this order: StopGo FLuc | 2A Renilla
> CSc1nc(Nc2ccc(C)cc2)c(C#N)c(-c2ccccc2)n1
    0% | 17%
> O=C(CC(Sc1n[nH]c(-c2ccc(F)cc2)n1)c1ccc(F)cc1)NCc1cccnc1 (stereo not given)
    -12% | 43%[activator]
> Cc1ccc(CNC(=O)c2cc3sccc3n2Cc2ccc(F)cc2)cc1
    -3% | -6%
> CCCCCCn1nc(C(=O)OCc2ccccc2)c2ccccc2c1=O
    5% | 4%
> C=CCOC(=O)C(C#N)c1nc2ccccc2nc1N1CCN(c2ccccc2OCC)CC1 (stereo not given)
    -17% | -12%
> Cn1cc(C(F)(F)F)ccc1=S
    1% | -3%
> CCCC(=O)Nc1c(S(=O)(=O)c2ccc(F)cc2)c(C)c(C)n1CC(C)C
    -4% | 16%
> CCOc1ccc(OCCC(=O)OCC(=O)Nc2cc(F)ccc2F)cc1
    14% | 0%
> CCCCn1nc(C(=O)N(C)Cc2ccccc2F)c2ccccc2c1=O
    0% | 159%[activator]
> O=C(COCc1cc(-c2cccs2)on1)N1CCN(c2ccc(F)cc2)CC1
    -21% | -15%
> Cc1cc(C)c2c(c1)C(=O)CCC2
    15% | 11%
> COc1cc(C(=O)NCCc2sc(-c3ccc(C)cc3)nc2C)cc(OC)c1OC
    47%[activator] | 18%
> CCN(CC)CCNC(=O)c1cc(C(C)(C)C)cc(C(C)(C)C)c1
    -10% | -12%
> COc1cccc(CNC(=O)C(C)n2ncn3cccc3c2=O)c1OC (stereo not given)
    1% | 6%
> CN(Cc1ccc(F)cc1)C(=O)c1n[nH]c(=O)c2ccccc12
    4% | -3%
> COc1ccc(C(=O)CSc2nc(C)cc(C)c2C(=O)Nc2ccccc2C)cc1
    -4% | u
> CC1CCCC(N2CCN(Cc3cccc(Cl)c3)CC2)C1 (stereo not given)
    -4% | -8%
> O=c1[nH]c2ccccc2cc1CN(C1CCCCC1)S(=O)(=O)c1ccccc1
    4% | 12%
> O=C(O)c1ccccc1NS(=O)(=O)c1ccc(N/N=C/c2c(-c3ccccc3)[nH]c3ccccc23)c([N+](=O)[O-])c1
    0% | -5%
> CCN(Cc1ccc2c(c1)OCO2)C(=O)c1cc2cc(Br)ccc2[nH]1
    27% | 142%[activator]
> CCCn1c2ccccc2c2cnn(CC(=O)NCCCOC(C)C)c(=O)c21
    -29% | -2%
> COc1ccc(-c2coc3cc(OCC#N)ccc3c2=O)cc1OC
    142%[activator] | -3%
> CCCSc1ncc(Cl)c(C(=O)Nc2ccc(OC)cc2OC)n1
    16% | -8%
> O=C(NCc1ccc(OC(F)F)cc1)c1ccc(-n2cnnn2)cc1
    -1% | 8%
> CCCCSc1nc2sc3c(c2c(=O)n1-c1ccccc1C)CC(C)(C)OC3
    -12% | -11%
> CC1CCC(NC(=O)C(c2ccccc2)c2ccccc2)CC1 (stereo not given)
    131%[activator] | 19%
> Cc1cc(C(=O)NNC(=S)Nc2ccccc2)cs1
    219%[activator] | 56%[activator]
> COc1cc2cc(C(=O)NCCCc3nnc4ccccn34)n(C)c2c(OC)c1OC
    35%[activator] | 50%[activator]
> CSc1ncc(C(=O)Nc2ccc(Cl)cc2C(=O)c2ccccc2)c(C)n1
    -2% | 214%[activator]
> CCN(CC)S(=O)(=O)c1ccc2c(c1)N(CC(=O)Nc1ccc(OC)cc1)C(=O)CS2
    -6% | 0%

Looked up by structure from the list above (two):
Results follow in this order: StopGo FLuc | 2A Renilla
> CCCCSc1nc2sc3c(c2c(=O)n1-c1ccccc1C)CC(C)(C)OC3
    -12% | -11%
> CC1CCCC(N2CCN(Cc3cccc(Cl)c3)CC2)C1 (stereo not given)
    -4% | -8%

The results go on.
Results follow in this order: StopGo FLuc | 2A Renilla
> CCC(CC)NC(=O)c1ccc(N(C)C)cc1
    0% | 6%
> O=C1CCCC2=C1C(c1ccc(C(F)(F)F)cc1)C1=C(N2)c2ccccc2C1=O (stereo not given)
    -5% | 41%[activator]
> Cc1ccccc1-c1nc(CS(=O)(=O)CC(=O)NCCCN2CCN(C)CC2)c(C)o1
    -20% | -7%
> CCc1ccc(NC(=O)CC2C(=O)NCCN2C(=O)c2ccc(F)cc2)cc1 (stereo not given)
    -14% | -4%
> COc1ccc(Nc2cc(C)nc(Nc3ccc(NC(=O)CC(C)C)cc3)n2)cc1
    u | 28µM*
> COc1cccc(N2CCN(C(=O)c3ccc4c(Cl)c5c(nc4c3)CCCC5)CC2)c1
    -16% | -8%
> CC(=O)N1CCc2c(sc3c2c(=O)n(CCc2ccccc2)c(=O)n3Cc2ccc(F)cc2)C1
    0% | -6%
> Cn1c(=O)c2nc(Br)n(CCCC#N)c2n(C)c1=O
    -4% | -6%
> COc1ccc(CN(C(=O)c2ccccc2F)C2CCS(=O)(=O)C2)cc1 (stereo not given)
    1% | 3%
> O=C(Cn1c(-c2cccs2)cc2cc(Cl)ccc21)N1CCN(c2ccccc2)CC1
    -9% | -3%
> Cc1oc(-c2ccccc2)nc1CSc1nnc(C)n2c1cc1sccc12
    -4% | -10%
> CCNc1cc(C)nc(Nc2ccc(NC(=O)c3cccc(Cl)c3)cc2)n1
    u | u
> Cc1nn(-c2ccc(N3CCOCC3)nn2)c(C)c1CCC(=O)NCc1ccc(OC(C)C)cc1
    -16% | -12%
> CC(C)(C)c1ccc(/C=C/C(=O)Nc2ccc(S(N)(=O)=O)cc2)cc1
    -9% | -23%
> COc1cc2cc(C(=O)N[C@@H](C)C(=O)Nc3ncc(C)s3)n(C)c2c(OC)c1OC
    0% | 5%
> N#Cc1ccc(OCCOC(=O)c2c(F)cccc2F)cc1
    0% | -3%
> COc1ccc(Cl)cc1NS(=O)(=O)c1cc(-c2n[nH]c(=O)c3c2CCCC3)ccc1C
    23% | 163%[activator]
> COc1ccc(NC(=O)Cn2nnc(C(=O)NCCc3ccccc3)c2N)cc1
    -19% | -6%
> CC(=O)c1ccccc1S(=O)(=O)NCC(=O)O
    0% | -8%[1.06 µM]
> COc1ccc(CNC2CCCC2)c(OC)c1OC
    -6% | -3%
> CCCCCCn1nc(C(=O)N(CCCC)c2c(N)n(CCC)c(=O)[nH]c2=O)c2ccccc2c1=O
    -4% | -10%
> Clc1ccccc1CSc1ccnc(SCc2ccccc2Cl)n1
    15% | 18%
> COc1ccccc1Nc1ncc2c(n1)CCN(Cc1cc(F)cc(F)c1)C2
    7% | 4%
> Cc1oc2ncn(CC(C)C)c(=O)c2c1C(=O)NC(C)c1ccccc1 (stereo not given)
    5% | 66%[activator]
> Cc1sc(N)c(C#N)c1-c1ccc(Cl)cc1Cl
    11% | -7%
> CCOCCCNc1nc2c(c(=O)n(C)c(=O)n2C)n1Cc1ccc(Cl)cc1Cl
    9% | -2%
> COC(=O)c1cc2occc2n1Cc1nc(-c2ccccc2F)oc1C
    -1% | 2%
> COCCNC(=O)C(=O)NCC(c1cccnc1)N1CCN(c2ccccc2F)CC1 (stereo not given)
    -22% | 2%
> CC(C)c1ccc(CNc2nc3nc4c(c(=O)n3[nH]2)CCC4)cc1
    17% | 6%
> CCC(C)NC(=O)Nc1cc(C(=O)NC)ccc1C (stereo not given)
    10% | 4%

Other structures follow.
| Molecule | StopGo FLuc | 2A Renilla |
| --- | --- | --- |
| CCCn1c(=NC(=O)c2c(-c3c(F)cccc3Cl)noc2C)c(C(=O)OCC)cc2c(=O)n3ccccc3nc21 | -4% | -4% |
| CC1(C)CC(=O)C(C(C2=C(O)CC(C)(C)CC2=O)c2cc(Cl)c(O)c(Cl)c2)C(=O)C1 (stereo not given) | 13% | 17% |
| COc1ccc2nc(/C(C#N)=C/c3ccccc3Sc3ccccc3)[nH]c2c1 | u | -27% |
| COc1cccc(NC(=O)c2cc3cc(OC)ccc3n2C)c1 | 44%[activator] | 7% |
| O=C(CCSc1ccc(F)c(F)c1)NC1CCOc2ccccc21 (stereo not given) | 15% | -3% |
| CCCCCn1nc(C(=O)N2CCc3ccccc32)c2ccccc2c1=O | 8% | -1% |
| COc1ccccc1NC(=O)N1c2ccccc2Sc2ccccc21 | 34%[activator] | -4% |
| CC(C)CC(=O)Nc1ccc2oc(-c3cccc(Cl)c3)nc2c1 | 169%[activator] | -8% |
| Cc1cccc(NC(=O)Cn2c(=O)n(Cc3nc(-c4ccccc4)no3)c(=O)c3ccccc32)c1 | -20% | -12% |
| CCNC(=O)N(C)Cc1nc(-c2ccc(Cl)cc2)no1 | 14% | -24% |
| COCCn1c(CCC(=O)Nc2ccc(C)c(Cl)c2)nc2cccnc21 | -5% | -5% |
| COc1ccc(-n2c(/C=C\c3ccccc3F)nc3ccccc3c2=O)c(OC)c1 | -12% | -6% |

Next structures follow:
| Molecule | StopGo FLuc | 2A Renilla |
| --- | --- | --- |
| CC(=O)NC12CC3CC(C1)CC(C(=O)NC(c1ccccc1)c1ccccc1)(C3)C2 | -10% | -8%[1.06 µM] |
| O=C(NC1CC1)c1cccc(NS(=O)(=O)c2cc(F)cc(F)c2)c1 | 53%[activator] | 126%[activator] |
| CCCCCn1c(CCCNC(=O)c2ccc(Cl)cc2)nc2ccccc21 | -14% | 32%[activator] |
| CC(C)CCC1(C)NC(=O)N(c2ccc(Br)cc2)N1 (stereo not given) | 16% | 7% |
| CCc1ccccc1NS(=O)(=O)c1ccc2c(c1)CC(=O)N2 | -19% | 1% |
| CCCCOc1ccc(C2=NC(c3ccncc3)=Nc3ccc(OCC)cc3N2)cc1 | 22% | 24% |
| COc1cc(C2CC(=O)N3CN(c4ccc(F)cc4)CSC3=C2C#N)cc(Br)c1O (stereo not given) | 0% | -7% |
| COc1ccc(N2C(=O)CSC23C(=O)N(CC(=O)NC2CCCCC2)c2ccccc23)cc1 (stereo not given) | -17% | -1% |
| COc1ccc(C)cc1NC(=O)Nc1cccc(OCc2cc(=O)n3ccc(C)cc3n2)c1 | -11% | 0% |
| Cc1ccc2c(c1)C(SCC(=O)Nc1ccccc1C(=O)O)c1ccccc1O2 (stereo not given) | 33%[activator] | u |
| COc1cccc(NC(=O)C(c2ccc(Cl)cc2)C(C)C)c1 (stereo not given) | -28% | u |
| COc1ccccc1-c1nnc(C2CCN(S(=O)(=O)c3ccccc3)CC2)o1 | -14% | -20% |

The final 3 records of the section before lead into the next:
| Molecule | StopGo FLuc | 2A Renilla |
| --- | --- | --- |
| Cc1ccc2c(c1)C(SCC(=O)Nc1ccccc1C(=O)O)c1ccccc1O2 (stereo not given) | 33%[activator] | u |
| COc1cccc(NC(=O)C(c2ccc(Cl)cc2)C(C)C)c1 (stereo not given) | -28% | u |
| COc1ccccc1-c1nnc(C2CCN(S(=O)(=O)c3ccccc3)CC2)o1 | -14% | -20% |
| CCCNC(=O)NC(=O)CSc1ncnc2ccccc12 | 10% | 2% |
| CC1CC(NC(=O)C2CCC2)CC(C)(C)C1 (stereo not given) | -10% | 7% |
| COc1ccc(NS(=O)(=O)c2ccc(N/N=C/c3ccc(C)s3)c([N+](=O)[O-])c2)cc1 | 0% | 34%[activator] |
| CC1CN(C(=O)COC(=O)c2cc(=O)[nH]c3ccccc23)CCO1 (stereo not given) | 105%[activator] | -1% |
| CCn1c(CNC(=O)c2ccc(OC)cc2)nnc1SCC(=O)Nc1ccc(C)cc1 | 7% | -4% |

An excerpt from above in order of count of non-hydrogen atoms, largest number first:
| Molecule | StopGo FLuc | 2A Renilla |
| --- | --- | --- |
| CCn1c(CNC(=O)c2ccc(OC)cc2)nnc1SCC(=O)Nc1ccc(C)cc1 | 7% | -4% |
| COc1ccc(NS(=O)(=O)c2ccc(N/N=C/c3ccc(C)s3)c([N+](=O)[O-])c2)cc1 | 0% | 34%[activator] |
| Cc1ccc2c(c1)C(SCC(=O)Nc1ccccc1C(=O)O)c1ccccc1O2 (stereo not given) | 33%[activator] | u |
| COc1ccccc1-c1nnc(C2CCN(S(=O)(=O)c3ccccc3)CC2)o1 | -14% | -20% |
| CC1CC(NC(=O)C2CCC2)CC(C)(C)C1 (stereo not given) | -10% | 7% |
